Screening data (PubChem)
ClpP mod = qHTS Assay for Activators of ClpP | ATP-dependent Clp protease proteolytic subunit (Bacillus subtilis (strain 168)), P80244 | purified B. subtilis ClpP, FRET peptide cleavage, 20 min | Potency, µM (doses to about 57.5 µM), for inactives: at the highest dose activity change, negative = active | actives 1.9% (n = 340,000); active = well fitted falling curve with a large enough effect; inconclusive = small, poorly fitted or top-dose-only effect; inactive = no such curve, though single readings can be large or run the other way; further: potency means the concentration at half of the fitted maximal effect; the source files actives as falling curves though it sought activators and does not explain the sign; nearly all actives have a fitted effect of over 65% in size; many hits overshoot -100%
Target sequence (P80244 whole entry, looked up): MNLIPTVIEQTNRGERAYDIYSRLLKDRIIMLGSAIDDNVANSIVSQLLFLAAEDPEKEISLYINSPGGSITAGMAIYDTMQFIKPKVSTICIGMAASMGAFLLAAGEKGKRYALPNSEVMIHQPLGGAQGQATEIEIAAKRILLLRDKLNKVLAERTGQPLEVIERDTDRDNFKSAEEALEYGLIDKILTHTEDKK
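Buffer: 100 mM Tris/HCl pH8, 100 mM KCl, 0.05% low protease BSA, 2.5% glycerol, 0.01% Tween-20. ClpP 10 microg/mL final; 20 min RT; delta FRET normalized to ADEP and DMSO controls.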
CtBP-E1A inh = blocks the CtBP interaction with E1A; AlphaScreen GST-E1A/His-CtBP binding, 1536-well; stronger effect = lower value; control for the full effect not named in the record; activity change, % (concentration not given with the values); actives 0.49% (n = 340,000); AID 651724; in the data active means activity change below about -65%; inconclusive means about -30% to -65%; inactive means above about -30%; further: on the % scale 0 is the no-effect control and ±100 the full control effect
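Protein mix (5X: 125 nM each GST-E1A, His-CtBP) was incubated with pinned compound 2 h at 37 deg C in dark, in 50 mM Tris pH 8.0 buffer with 300 mM NaCl. Glutathione donor and nickel acceptor beads followed; AlphaScreen signal read after 1 h.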
gsp ag = activates gsp, the McCune-Albright syndrome mutation; AID 624287; Potency, µM (top dose mostly 76.9 µM), without a hit: top-dose activation (cAMP increase), hits mostly activators; gsp mutant cells, cAMP HTRF, 30 min; control for the full effect not named in the record; actives 0.13% (n = 340,000); active = well fitted activation curve with a large enough effect; inconclusive = small, poorly fitted or top-dose-only effect, or another doubt; inactive = no such curve, though single readings can be large or run the other way; cell line not stated here;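 further: phosphodiesterase inhibitor Ro 20-1724 added with compounds to block cAMP breakdown; potency means the concentration at half of the fitted maximal effect; nearly all actives have a fitted effect of over 60% in size; about a fifth of the inactives were tested at one dose only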
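Cells stably selected in G418 were plated at 2000/well, grown 16-24 hr, then given compounds in DMSO with the PDE inhibitor […] (300 uM solution added) for 30 min at 37C; cAMP was read by HTRF.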
gsp antagonist = gsp mutant antagonism; gsp-mutant cells, cAMP HTRF, 30 min; control for the full effect not named in the record; Potency, µM (doses to about 76.9 µM), for the others: at the highest dose activity change, negative = inhibition, actives largely listed as inhibitors; actives 0.4% (n = 340,000); active = falling curve of any shape with a large fitted effect; inconclusive = falling curve, mostly with a smaller effect; inactive = flat or rising curve; cell line not stated here;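 further: intracellular cAMP measured with PDE inhibitor Ro 20-1724 present during compound exposure; potency means the concentration at half of the fitted maximal effect; on the % scale 0 is the no-effect control and ±100 the full control effect; nearly all actives have a fitted effect of over 65% in size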
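HTRF cAMP measurement after 30 min RT detection following 30 min, 37C compound treatment alongside […] (added as 300 uM solution) in G418-selected cells seeded at 2000/well and grown 16–24 h.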
TRPV1 potentiator = potentiators of human vanilloid receptor 1 (TRPV1). Q8NER1. TRPV1-expressing cells, Fluo-8 calcium influx, capsaicin EC20 potentiation; host cell line not named in the record; control for the full effect not named in the record. potentiation, % at 8.33 µM. actives 0.02% (n = 320,000); active means potentiation above 80%; inconclusive means 30% to 80%; inactive means below 30%; further: 0% is about no effect
Target sequence (Q8NER1 whole entry, looked up): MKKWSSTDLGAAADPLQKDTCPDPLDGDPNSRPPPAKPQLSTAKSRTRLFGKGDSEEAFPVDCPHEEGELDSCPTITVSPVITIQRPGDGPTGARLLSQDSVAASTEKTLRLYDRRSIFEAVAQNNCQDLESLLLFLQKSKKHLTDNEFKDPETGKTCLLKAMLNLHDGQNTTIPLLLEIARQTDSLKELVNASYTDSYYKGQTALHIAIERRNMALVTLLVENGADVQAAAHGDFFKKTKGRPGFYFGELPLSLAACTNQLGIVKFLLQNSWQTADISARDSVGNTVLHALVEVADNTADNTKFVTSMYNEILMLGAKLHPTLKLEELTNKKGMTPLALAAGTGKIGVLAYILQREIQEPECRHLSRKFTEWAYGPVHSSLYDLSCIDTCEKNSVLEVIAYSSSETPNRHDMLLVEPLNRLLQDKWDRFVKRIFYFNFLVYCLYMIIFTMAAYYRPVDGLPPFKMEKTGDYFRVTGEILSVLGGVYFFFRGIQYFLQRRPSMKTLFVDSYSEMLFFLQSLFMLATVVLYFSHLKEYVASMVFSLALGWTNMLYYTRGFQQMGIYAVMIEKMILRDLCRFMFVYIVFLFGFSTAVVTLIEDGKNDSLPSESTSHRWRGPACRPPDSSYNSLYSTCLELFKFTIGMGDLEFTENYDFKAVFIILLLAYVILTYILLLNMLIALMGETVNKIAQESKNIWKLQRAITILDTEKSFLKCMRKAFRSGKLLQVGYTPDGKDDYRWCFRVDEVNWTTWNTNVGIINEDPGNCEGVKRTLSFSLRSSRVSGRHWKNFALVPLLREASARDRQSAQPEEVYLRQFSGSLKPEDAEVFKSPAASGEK
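Cells expressing TRPV1 were dye-loaded with Fluo-8 and read kinetically: 10 s baseline, 3 min after compound (agonist portion), then 2 min after EC20 capsaicin (allosteric enhancer portion). Calcium-bound dye fluorescence at 480/520 nm.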
Sfp PPTase inh = Sfp phosphopantetheinyl transferase inhibition | Q9F4F7 | Biochemical Sfp PPTase activity, qHTS | Potency, µM, for inactives: max response, negative = inhibition, hits mostly inhibitors | actives 3.5% (n = 310,000); active means well fitted inhibition curve with a large enough effect; inconclusive means small, poorly fitted or top-dose-only effect, or another doubt; inactive means no such curve, though single readings can be large or run the other way;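 further: the enzyme is Sfp with the accession as filed and its product quenches rhodamine fluorescence; potency means the concentration at half of the fitted maximal effect; 0% = enzyme reaction without inhibitor and -100% = no enzyme wells; top concentration of the series not given in the record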
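Fluorescence-quenching assay: 15 nM Sfp-PPTase preincubated 15 min at room temperature with compound, then 5 uM rhodamine-CoA and 12.5 uM BHQ-2-labelled YbbR peptide added. Fluorescence (ex 525/em 598 nm) read at start and after 30 min; difference gives rate.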
Menin-MLL FL inh = menin-MLL binding inhibition, fluorescein peptide. FP activity change, % at 61.4 µM. 290,000 tested, under 10 active. Fluorescence polarization, fluorescein-MLL peptide displacement from menin; inconclusive = falling polarisation curve, or a change in total fluorescence; inactive = total fluorescence flat and polarisation flat or rising; no compound was filed as active; the % refers to the polarisation; negative = inhibition;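 further: % of control where 0% means no effect; inhibitors lower the polarisation; unlabelled MLL peptide was the positive control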
Starred values were filed as active, the others as inactive; ? = inconclusive; nt = no result given; & = joins results of further samples; ! = not confirmed by another sample; [ ] = dose if it differs, or a comment. A portion of the library (hit frequency here may not be typical).

SMILES	ClpP mod	CtBP-E1A inh	gsp ag	gsp antagonist	TRPV1 potentiator	Sfp PPTase inh	Menin-MLL FL inh
Cc1c(C(=O)O)cccc1-n1c(C)cc(/C=C2\C(=O)NC(=O)N(c3ccc4c(c3)OCO4)C2=O)c1C	nt	nt	3%[15.4 µM]	10%	0	-17%	3.0
CN1C2CCC1CC(OC(=O)c1ccc(Cl)cc1)(C(=O)O)C2 (stereo unspecified)	-1.6%	-3	-6%	12%	-4	35%	4.1
CSc1ccc(C(=O)C2CCCN(Cc3ccn[nH]3)C2)cc1 (stereo unspecified)	nt	0	5%[15.4 µM]	2%	16	22%	4.2
O=C(Cc1ccccc1)N1CCN(Cc2ccc([N+](=O)[O-])cc2)CC1	-0.8%	2	-67%[inhibitor]	5%	-7	-24%	5.5
CCN1C[C@]2(COC)CC[C@H](O)[C@]34C1[C@](O)([C@@H](OC)[C@H]23)[C@@]1(O)C[C@H](OC)[C@H]2C[C@@H]4[C@@H]1[C@H]2OC	-1.7%	5	nt	3%	0	nt	nt
Cc1ccccc1N1C(=O)NC(=O)/C(=C\c2cc(C)n(C)c2C)C1=O	nt	3	7%	1%	5	9%	-0.8
NP(=O)(Oc1ccccc1)c1ccccc1 (stereo unspecified)	-1.4%	3	-2%	9%	nt	nt	nt
COC(=O)C1=C(c2cccc(C#N)c2)C[C@@H]2CC[C@H]1N2C(=O)N1CCOCC1	2.7%	4	nt	18%	-6	nt	nt
Oc1ccccc1/C=N/NP(=S)(c1ccccc1)c1ccccc1	1.1%	-19	0%[15.4 µM]	-44%	3	39%[activator]	2.2
CCOc1cc2c(cc1OCC)-n1cccc1C(c1ccc(F)cc1)NC2 (stereo unspecified)	-0.3%	-15	-14%	6%	-8	3%	-3.0
CCN(CC)CCN=Cc1c(O)n(Cc2ccco2)c(=O)[nH]c1=O	nt	2	-1%[15.4 µM]	-5%	2	-1%	-0.9
COC(=O)C1=C(c2cc3ccccc3s2)C[C@@H]2CC[C@H]1N2C(=O)NCc1ccccc1	-2.3%	-4	nt	-22%	nt	nt	nt
O=c1[nH]c2ccccc2s1	-1.0%	8	-12%	6%	-7	-4%	-1.4
CN(C)CCC=C1c2ccccc2CCc2ccccc21	0.1%	-7	nt	20µM*	-17	?	-5.1
Cc1cc(OC(C)C(=O)NCC(O)c2ccccc2)c2c3c(c(=O)oc2c1)CCCC3 (stereo unspecified)	4.0%	4	-38%[inhibitor]	-25%	18	6%	8.3
COc1cccc2c1C(=O)c1c(O)c3c(c(O)c1C2=O)C[C@@](O)(C(=O)CO)C[C@@H]3O[C@H]1C[C@H](N)[C@H](OC2CCCCO2)[C@H](C)O1 (stereo partly specified)	-0.6%	nt	nt	nt	nt	-14%	?
CCOc1ccc(N2C(=O)NC(=O)/C(=C\c3ccc(N4CCOCC4)cc3C)C2=O)cc1	nt	0	-33%[inhibitor]	1%	1	40µM*	?
c1ccc(CCN2CCC3(CC2)OCCO3)cc1	-0.3%	3	2%[15.4 µM]	10%	nt	nt	nt
O=C(c1ccc2c(c1)ncn2C1CCCCCC1)N1CCC2(CC1)OCCO2	-1.3%	1	3%	-1%	2	6%	0.2
Cn1c(O)c(C=NC2CC3CCC2(C)C3(C)C)c(=O)[nH]c1=O (stereo unspecified)	-1.5%	11	-7%	4%	-3	3%	1.3
O=C1NC(=O)C(=Cc2ccc(SC3CCCCC3)o2)C(=O)N1	6.2%	0	9%	-18%	20	28µM*	?
O=c1[nH]c(=S)n(Cc2ccc(F)cc2)c(O)c1/C=N/N1CCCCCC1	-3.9%	-6	14%	-1%	-1	-10%	?
O=C(c1ccccc1)c1ccc(N=Nc2c(O)[nH]c(=O)[nH]c2=O)cc1	-2.1%	nt	-8%	-2%	-17	7%	?
CCN(CC)P(=O)(NC(=O)c1cccn1C)N(CC)CC	-3.0%	-20	0%[15.4 µM]	3%	1	12%	-1.6
CCCC12CN3CCN(CC(C3)/C1=N\NC(=O)c1ccncc1)C2	nt	-8	-2%[15.4 µM]	11%	-10	13%	0.4

(list continues)
SMILES	ClpP mod	CtBP-E1A inh	gsp ag	gsp antagonist	TRPV1 potentiator	Sfp PPTase inh	Menin-MLL FL inh
CC(C)(C)NC(=O)Cn1cc(C(=O)c2ccccc2F)c2ccccc21	1.1%	2	4%	12%	8	18%	3.2
CCN(C(=O)COC(=O)Cc1ccccc1)c1c(N)n(Cc2ccccc2)c(=O)[nH]c1=O	2.0%	nt	5%	9%	-3	nt	nt
COc1ccc(CN2C(=O)NC(=O)/C(=C/c3ccc(OC)c(OC)c3OC)C2=O)cc1	nt	-5	-2%[15.4 µM]	2%	9	40µM*	?
COc1ccc(CC2C(=O)NC(=O)NC2=O)c(OC)c1	-1.1%	1	-54%[inhibitor]	7%	-17	-9%	0.5
O=c1c2ccccc2nc(/C=C/c2ccc(O)cc2)n1-c1ccccc1O	-2.3%	1	0%	-22%	nt	5%	?
CC/C(=N\Nc1cccc2ccccc12)c1c(O)[nH]c(=O)[nH]c1=O	-2.5%	-9	-20%	-2%	7	?	6.0
CCOc1ccccc1N1C(=O)CC(=O)NC1=O	-0.8%	nt	-2%	8%	2	-15%	-2.4
CCN1C(=O)NC(=O)/C(=C\c2cn(CC(=O)O)c3ccccc23)C1=O	nt	nt	nt	nt	7	2%	27
CCOC(=O)C1(c2ccccc2)CCN(CCC(=O)Nc2ccccc2OC)CC1	-0.3%	nt	-11%	-1%	-10	2%	-7.0
CCCCCn1c(=O)c(C(=O)Nc2ccncc2)c(O)c2ccccc21	nt	nt	nt	nt	-11	16%	1.3
CCc1nccc2c1[nH]c1ccccc12	4.7%	1	nt	-3%	-44	nt	nt
COc1cc(OC)c2c(c1)O[C@@H](c1ccc(OC)c(OC)c1)[C@H](O)C2	-1.6%	nt	-1%	-10%	-7	6%	-2.4
C/C=C/c1ccc2c(c1)OCO2	-12%&-2.2%	6	nt	2%	-5	-8%&23%	-22&0.3
CC(C)(C)c1ccc(C(=O)C2CCCN(Cc3ccon3)C2)cc1 (stereo unspecified)	1.3%	-8	-11%	-5%	-6	2%	4.7
CCC(=NCCC(c1ccccc1)c1ccccc1)c1c(O)n(C)c(=O)n(C)c1=O	-2.3%	7	-18%	1%	16	-10%	3.8
Cc1cc(C)n2c(Br)c(CN3CC4CC(C3)c3cccc(=O)n3C4)nc2n1 (stereo unspecified)	-9.7%	-13	?	15%	11	6%	0.1
O=C(c1ccco1)c1cn(Cc2ccccc2Cl)c2ccccc12	-17%	2	-23%	1%	-2	?	1.4
CC(=Nc1c(C)n(C)n(-c2ccccc2)c1=O)c1c(O)n(Cc2ccccc2)c(=O)[nH]c1=O	-3.2%	-12	-20%	-11%	21	6%	8.2
CN(C)CC/C=C1/c2ccccc2Sc2ccc(Cl)cc21	-1.4%&-2.8%	-18&-10	-64%[inhibitor]	3%&11%	-5&-9	-22%&2%	-4.1&2.7
COc1ccc(-n2c(/C=C3/C(=O)Nc4ccccc43)nc3ccccc3c2=O)cc1	nt	4	2%[15.4 µM]	-4%	-8	18%	-3.0
COc1cc(-c2ccc(N)c(OC)c2)ccc1N	?	-18	nt	?	2	nt	nt
CNC(=O)c1cccn(Cc2cccc(C(F)(F)F)c2)c1=O	nt	5	-4%[15.4 µM]	-5%	2	17%	-5.0
C[C@@H]1CC2(CCCC[N+]2(C)C)C[C@H]1C	nt	-12	0%[15.4 µM]	nt	-3	18%	-6.7
CCn1cc(CN2CCCC(C(=O)c3cccc(OC)c3)C2)c(C)n1 (stereo unspecified)	nt	0	-15%	3%	-8	7%	5.9
COCCCN1CCN(c2nnc3n2-c2sc(Br)cc2C(c2ccccc2Cl)=NC3)CC1	-2.1%	4	-4%	8%	-1	?	1.8

(more compounds)
SMILES	ClpP mod	CtBP-E1A inh	gsp ag	gsp antagonist	TRPV1 potentiator	Sfp PPTase inh	Menin-MLL FL inh
COc1ccc(-c2nc3ccccc3c(=O)n2-c2cccnc2)cc1	1.0%	0	3%	-5%	-18	29%	-1.0
CC(=O)O[C@@H]1/C=C/[C@](C)(O)C[C@@H](C)C/C=C/[C@H]2[C@H](O)C(C)=C(C)[C@H]3[C@H](Cc4ccccc4)NC(=O)[C@@]123	-0.8%	6	7%	7%	nt	nt	nt
CCCNS(=O)(=O)c1ccc(OCC(=O)N2CCN(Cc3ccccc3)CC2)cc1	0.1%	28	8%	-23%	8	2%	-1.5
O=c1c2ccccc2nc(CBr)n1-c1ccc(Cl)cc1	2.7%	6	-96%[inhibitor]	nt	nt	nt	nt
C[C@]12CCC(=O)C=C1CC[C@@H]1[C@@H]2C(=O)C[C@]2(C)C(=O)CC[C@@H]12	2.1%	3	nt	-4%	8	29%	3.8
CCn1c(=O)n(CC)c2cc([N+](=O)[O-])c(N3CCNCC3)cc21	-8.3%	-6	2%[15.4 µM]	11%	14	8%	-2.6
Cc1nn(CCc2n[nH]c(=S)n2-c2cccc(Cl)c2)c(C)c1[N+](=O)[O-]	1.0%	4	?	-10%	-3	-1%	6.3
CN1C2CCC1CC(OC(=O)c1ccc(Cl)cc1)C2 (stereo unspecified)	2.9%	-5	-10%	12%	1	17%	0.4
C=CCn1c(O)c(/C(C)=N/N2CCCCC2)c(=O)[nH]c1=O	nt	3	4%[15.4 µM]	-11%	6	0%	3.5
Cc1c(OCC(F)(F)F)ccnc1CS(=O)c1nc2ccccc2[nH]1 (stereo unspecified)	-15%	7	nt	3%	-12&-9	13µM*!	-2.7
COCc1cc(OC(=O)N(C)C)nc(-c2ccccc2)n1	-0.2%	16	-4%[15.4 µM]	4%	0	3%	-0.1
COc1cc2c(ccc3c4cc(OC)c(OC)cc4c[n+](C)c23)cc1O	0.2%	4	-5%	-14%	nt	nt	nt
Cc1ccc(S(=O)(=O)NCCC(=O)Nc2ccc(Cl)cc2C(=O)c2ccccc2)cc1	-0.7%	-1	8%[15.4 µM]	-17%	-8	3%	0.2
C=CCOC(=O)C1=C(C)OC(N)=C(C#N)C12C(=O)N(CN1CCOCC1)c1ccccc12 (stereo unspecified)	-2.9%	-2	-14%	5%	11	22%	0.9
CCN(CC)Cc1c[nH]c2ccccc12	-30%	8	3%	2%	4	-10%	12
